Marburg entry inh – blocks Marburg virus binding to or entry into cells. Marburg virus pseudotyped entry inhibition, cell reporter; control for the full effect not named in the record; about a third of the inactives were read at about 46 µM. Potency, µM (titrated, usually from 37.8 µM), inactives show top-dose activity change, negative = inhibition, usual class: inhibitors. 1.8% of 300,000 active; active = well fitted inhibition curve with a large enough effect; inconclusive = small, poorly fitted or top-dose-only effect, or effect the other way; inactive = flat fitted curve, though single readings scatter; tested in HEK293 cells; about a fifth of its hits are not listed in these tables; further: luciferase read-out
Numbers without * were called inactive; u = inconclusive; & = joins results of further samples; [ ] = remark or other dose. On the % scale 0 is the no-effect control and ±100 the full control effect; potency means the concentration at half of the fitted maximal effect.

| SMILES | Marburg entry inh |
| --- | --- |
| CCOC(=O)C1=C(N)n2c(s/c(=C/c3ccco3)c2=O)=C(C(=O)OCC)C1c1ccco1 (stereo not drawn) | -18% |
| CCC[C@]12CCN3C(=O)N[C@@H](c4ccccc4)[C@](C(=O)OCC)(C1)[C@H]32 | 9%[14.2 µM] |
| C=C(C)CO[C@H]1C=C[C@@H](c2ccccc2)O[C@H]1CO | 2%[14.2 µM] |
| CC(C)=CCC/C(C)=C/CO/N=C1\C[C@@H](O)[C@@H](O)[C@@H]2[C@@H]3C(=O)N(c4cccc(Oc5ccccc5)c4)C(=O)[C@@H]3CC[C@@H]12 | 26%[14.2 µM] |
| C=C(CCN1C=C(C(C)=O)C(c2ccccc2)NC1=O)c1ccccc1 (stereo not drawn) | u |
| Cc1cc2c(nc1C)CCCN2CC(O)CN1CCCc2nc(-c3ccc(Br)cc3)ccc21 (stereo not drawn) | u |
| CC1(C)[C@@]2(C(=O)N(CCC#N)CCC#N)CC[C@]1(C)C(=O)C2 | -2% |
| CC1=C[C@@H](c2ccccc2)n2nc(N3C(=O)[C@H]4CC=CC[C@@H]4C3=O)nc2N1 | -4% |
| Fc1ccc([C@H]2C3=C(Nc4ncnn42)c2ccccc2O[C@H]3c2ccncc2)cc1 | -11% |
| Clc1ccc(C(c2ccc(Cl)cc2)n2cc[n+](C[C@@H](OCc3ccc(Cl)cc3Cl)c3ccc(Cl)cc3Cl)c2)cc1 | u |
| CC(CCN1CCCc2nc(C)c(C)cc21)=NO[C@H](C)c1cn([C@H](CO)Cc2ccccc2)nn1 | -41%[14.2 µM] |
| COC(=O)C12CC3(CCC4C5C(C(OCc6ccccc6)C41)C52)OCCO3 (stereo not drawn) | u |
| CON(C)C(=O)c1nnc2c3ccccc3n(S(=O)(=O)c3ccc(C)cc3)c2n1 | 16%&16%&16%[14.2 µM] |
| CCOC(=O)[C@@]12C3[C@@H](CCN3C(=O)N[C@@H]1c1ccccc1)[C@@H]2C (stereo partly drawn) | -11%[14.2 µM] |
| CC(C)(C)N1C(=O)[C@H]2[C@H]3[C@H](O)[C@H](O)C/C(=N\OCc4ccccc4)[C@H]3CC[C@H]2C1=O | -9%[14.2 µM] |
| CC#C[C@H](C)[C@@H](OCOC)[C@H](C[C@H](C)Cc1cc(Br)cc(OCc2ccccc2)c1OC)OC | -10%[14.2 µM] |
| COC(=O)C1=C(C)N(Cc2ccccc2)C(=NCC(C)C)NC1c1ccc(Br)cc1 (stereo not drawn) | 5%[14.2 µM] |
| COC(=O)C1=C(C)N(Cc2ccccc2)C(=S)NC1c1cccc(F)c1 (stereo not drawn) | 48%[14.2 µM] |
| COc1ccccc1OC[C@H](O)CN1CCN(CC(=O)Nc2c(C)cccc2C)CC1 | u |
| O=C(c1ccccc1)[C@@H]1O[C@@H]1c1ccccc1 | u |

Reprinted at random: 2 records from the list.
| SMILES | Marburg entry inh |
| --- | --- |
| O=C(c1ccccc1)[C@@H]1O[C@@H]1c1ccccc1 | u |
| CON(C)C(=O)c1nnc2c3ccccc3n(S(=O)(=O)c3ccc(C)cc3)c2n1 | 16%&16%&16%[14.2 µM] |

(cont.)
| SMILES | Marburg entry inh |
| --- | --- |
| CC(C)(C)c1ccc(O[C@@H]2[C@H](O)CO[C@H]2/C=C/C#Cc2ccccc2)cc1 | -9%[14.2 µM] |
| CNCC[C@H](Oc1ccccc1C)c1ccccc1 | u |
| O[C@H]1C[C@H](c2ccccc2)N(Cc2cccs2)C[C@H]1n1cc(C2CC2)nn1 | u |
| COC(=O)N1C(/C=C/c2ccc3c(c2)OCO3)=Cc2ccccc2C1CC(C)=O (stereo not drawn) | -12%[14.2 µM] |
| CC(CCN1CCc2nc(-c3ccccc3)c(-c3ccccc3)cc2C1)=NOC[C@@H](O)[C@H]1O[C@@H]2OC(C)(C)O[C@H]2[C@@H]1O | 26%[14.2 µM] |
| Cc1ccc(N2C(=O)C[C@H](Cn3nc(C)cc3C)C2=O)cc1 | -1% |
| C=CCCC/C=C(/C)C(OCc1ccc(OC)cc1)C(CC/C=C(\C)C(N)=O)OC (stereo not drawn) | 10%[14.2 µM] |
| CC(=O)C1=C(C)N(Cc2ccccc2)C(=O)NC1c1cccc(C(F)(F)F)c1 (stereo not drawn) | -7%&12%[14.2 µM] |
| O=C1CCC2=C(O1)C(O)=C(O)CC2 | 8% |
| CCOC(=O)CCN1C(=O)[C@@H]2[C@H]3[C@H](O)[C@H](O)CC(=NOCC(C)C)[C@@H]3CC[C@H]2C1=O | -11%[14.2 µM] |
| COc1ccc([C@H](CC(=O)O)NC(=O)OC(C)(C)C)cc1 | 6% |
| C[C@H]1Cc2c(COc3ccccc3)nc3c(c2CO1)CN(C(=O)C1CCCCC1)CC3 | -12%&-12%[14.2 µM] |
| CCN1C(=O)NC(c2cccs2)C(C(=O)OC)=C1C (stereo not drawn) | 1%[14.2 µM] |
| Cc1cc(O)cc(O)c1C(=O)OC1(C)C(=O)C=C2C=C(C=CCO)OC=C2C1=O (stereo not drawn) | u |
| N/C(Cc1nc(-c2ccc(Cl)cc2)cs1)=N\O | 6% |
| CCOC(=O)[C@H](C)Oc1ccc2c(C)cc(=O)oc2c1C(C)=O | 15% |
| C=CCOC(=O)C(C(C)=O)C(NC(=O)OC)c1cccc(F)c1 (stereo not drawn) | 12%[14.2 µM] |
| COC(=O)CC=C1c2ccccc2OC[C@@H](OC)[C@H]1C | 2%[14.2 µM] |
| C=CC1=C2C=C(C3CC3)N(CCOC)C=C2C(=O)C(C)(OC(=O)c2ccco2)C1=O (stereo not drawn) | -2%&-2%[14.2 µM] |
| CC12C=C(/C=C/c3ccc(C(F)(F)F)cc3)C(C)(C1)C(c1ccc(C(F)(F)F)cc1)CC2=O (stereo not drawn) | 6%[14.2 µM] |

The list goes on; it opens with the two that closed the last part.
| SMILES | Marburg entry inh |
| --- | --- |
| C=CC1=C2C=C(C3CC3)N(CCOC)C=C2C(=O)C(C)(OC(=O)c2ccco2)C1=O (stereo not drawn) | -2%&-2%[14.2 µM] |
| CC12C=C(/C=C/c3ccc(C(F)(F)F)cc3)C(C)(C1)C(c1ccc(C(F)(F)F)cc1)CC2=O (stereo not drawn) | 6%[14.2 µM] |
| COc1ccc2c(c1)C(NC(=O)C(F)(F)F)CC21CCCCC1 (stereo not drawn) | u |
| CC(C)Nc1oc(-c2ccccc2)nc1C=Cc1ccccc1 | u |
| C=C(C)CCCN1C=C(C(C)=O)C(c2ccccc2)NC1=O (stereo not drawn) | 2%[14.2 µM] |
| C=CCOC(=O)N[C@H](C(C(=O)OC)=C(C)NCc1ccccc1)c1cccc(OC)c1 | -13%[14.2 µM] |
| COC(=O)NC(CC(C)=O)c1ccccc1 (stereo not drawn) | 11% |
| C[C@@H](CN1CCN(C)CC1)OC(=O)c1ccc(Cl)cc1Cl | 12% |
| O=C1[C@H]2[C@@H]3[C@@H](O)[C@H](O)CC(=NOCc4ccccc4)[C@H]3CC[C@H]2C(=O)N1C[C@@H]1CCCO1 | -7%[14.2 µM] |
| CC1(C)O[C@@H]2O[C@H]([C@H](O)CO/N=C3/[C@H]4O[C@@H]4[C@@H](O)[C@H]4[C@H]3CCn3c(=O)n(-c5ccccc5)c(=O)n34)[C@@H](O)[C@@H]2O1 | u |
| C[C@@H]1CN(C2CCN(C(=O)COc3ccccc3)CC2)C[C@H](C)O1 | 7% |
| C/C(CCC(=O)OC[C@H]1O[C@H](C#Cc2ccccc2)C=C[C@@H]1Oc1ccc(C)cc1)=N\OC[C@@H](O)COCc1ccco1 | -10%[14.2 µM] |
| COC(=O)N[C@H](CC(C)=O)c1cccc(F)c1 | -7%[14.2 µM] |
| COC1=CC2C(=O)C(C1=O)C1c3ccccc3CC21 (stereo not drawn) | -3%[14.2 µM] |
| O=C1c2ccccc2C(=O)N1CCCC[C@]12Cc3c(ccc4ccccc34)[C@H](O1)c1c(cc(-c3ccccc3)oc1=O)O2 | u |
| COC(=O)C1=C(C)N(CC2CC2)C(=O)NC1CCc1ccccc1 (stereo not drawn) | u |
| CC12C=C(/C=C/C=C/c3ccco3)C(C)(C1)C(/C=C/c1ccco1)CC2=O (stereo not drawn) | u |
| COc1cc2c(cc1OC)[C@@H]1O[C@](CCCCN3C(=O)c4ccccc4C3=O)(C2)Oc2cc(C)n(Cc3ccccc3)c(=O)c21 | -3%[14.2 µM] |
| COC(=O)C1=C(C)N(CCC(C)O[Si](C)(C)C(C)(C)C)C(=O)N(C(C)=O)C1c1ccccc1 (stereo not drawn) | 7%[14.2 µM] |
| CCC[C@H]1CN(c2ccc(OC)cc2)C(=O)[C@H]1CC(=O)NC | u |
| COc1ccc(/C(O)=C2\C(=O)C(=O)N(CCN(C)C)[C@H]2c2cccc(OC)c2OC)cc1 | -16% |
| C=CC[C@@]1(c2ccccc2)Oc2ccccc2-c2nc3ccccc3nc21 | u |

Carrying on.
| SMILES | Marburg entry inh |
| --- | --- |
| O=C1C2=C(C(=O)c3ccccc31)[C@H]1O[C@](c3ccsc3)(Cc3c1ccc1ccccc31)O2 | 15%[14.2 µM] |
| COC(=O)C(C(C)=O)C1c2ccccc2C=C(C)N1C(=O)OC (stereo not drawn) | -30%&-30%[14.2 µM] |
| COc1ccc([C@]23Cc4ccccc4[C@H](O2)C2=C(O3)C(=O)c3ccccc3C2=O)cc1 | 11%[14.2 µM] |
| CNC(=O)NC(=O)CN1C=NC2SC(c3ccccc3)C=C2C1=O (stereo not drawn) | -2%[46.1 µM] |
| CC[C@@]12C=C(C=Cc3ccccc3)[C@](CC)(C1)[C@H](c1ccccc1)CC2=O | 4%[14.2 µM] |
| COc1ccc(O[C@H]2C=C[C@@H](c3ccccc3)O[C@@H]2CO/N=C/[C@@H](C)[C@H](OCc2ccccc2)C(C)C)cc1 | u |
| CCOC(=O)NN=C1C[C@@H](O)[C@@H](O)[C@@H]2[C@H]3C(=O)N(Cc4ccccc4)C(=O)[C@@H]3CC[C@@H]12 | 25%[14.2 µM] |
| C=C(CC(=O)OC)C[C@]1(CC(=O)OC)CC2(CC=C(C)C)C(=O)C(C(=O)c3ccccc3)=C(OC(=O)c3ccc(Br)cc3)C(CC=C(C)C)(C1)C2=O (stereo partly drawn) | 4%&4%[14.2 µM] |
| COCOc1ccc(Br)cc1C(=O)[C@@H]1O[C@@H]1c1cccc(OC)c1 | -17%[14.2 µM] |
| CCN(CC)CCN1C(=O)C(=O)/C(=C(\O)c2ccc(F)cc2)[C@@H]1c1ccncc1 | -20% |
| COc1cccc([C@@H](NC(=O)C(F)(F)F)[C@@H]2CCCC=C2c2ccccc2)c1 | u |
| COC(=O)CC1c2ccccc2C(Cc2ccc(OC)cc2)C(C)N1C(=O)OC (stereo not drawn) | u |
| COc1cccc(CC(=O)N2CCc3nc(-c4ccccc4)c4c(c3C2)CO[C@@H](C)C4)c1 | -3%&-3%&-3%[14.2 µM] |
| COC(=O)C1=C(C)N(Cc2ccccc2)C(=O)NC1c1cccc(C(F)(F)F)c1 (stereo not drawn) | 17%[14.2 µM] |
| COc1cccc2c1[C@H](C=Cc1ccccc1)[C@@H]([C@H](O)CN=[N+]=[N-])OC2 | -5%[14.2 µM] |
| C=C(C)C(=O)OC[C@@H]1CN2[C@@H](CC[C@@H](C)[C@@H]2c2ccc(Br)cc2)C(=O)O1 | u |
| Cc1c([C@@H]2Nc3ccccc3NC3=C2C(=O)CC(C)(C)C3)cnn1C | 2% |
| CC(C)(C)c1onc(OCP(=O)(O)O)c1C[C@@H](N)C(=O)O | u |
| C=CCOC(=O)C(C(C)=O)[C@@H](NC(=O)OC)c1ccc(F)cc1 (stereo partly drawn) | 20%[14.2 µM] |
| Cn1c(=O)c2c(O)c(C=NCC3CCCCC3)c(=O)n(C)c2n(C)c1=O | 4%[46.1 µM] |

Later entries:
| SMILES | Marburg entry inh |
| --- | --- |
| O=c1n(-c2ccccc2)c(=O)n2n1CC[C@@H]1/C(=N/OC[C@@H](O)COCc3ccco3)[C@H]3O[C@H]3[C@@H](O)[C@@H]12 | -23%[14.2 µM] |
| CCc1cc2c(nc1CC)CCN(CC/C(C)=N/OCC[C@@H]1C=C[C@H](OC(C)=O)[C@H](COC(C)=O)O1)C2 | u |
| O=C1[C@@H]2[C@H]3[C@H](O)[C@H](O)C/C(=N/OC[C@@H](O)COCc4ccco4)[C@@H]3CC[C@H]2C(=O)N1c1ccc(F)cc1F | 14%[14.2 µM] |
| CC(=O)N/C(=N\c1nc(C)cc(C)n1)Nc1ccc(NC(C)=O)cc1 | -20%[46.1 µM] |
| CCOC(=O)C[C@@H](C#N)c1cn(C)c2ccccc12 | -18% |
| C[C@H]1CC[C@H]2C(=O)N(Cc3ccc(Cl)cc3)C[C@@H](O)CN2[C@H]1c1ccc(Br)cc1 | -7%[14.2 µM] |
| COc1ccc2c3c(c(=O)oc2c1)[C@H]1O[C@](CCCCN2C(=O)c4ccccc4C2=O)(Cc2cc(OC)c(OC)cc21)O3 | u |
| C#CCNC(=O)[C@H]1C=C(OC)C(=O)C[C@H](c2ccccc2)[C@H]1C | 8%[14.2 µM] |
| COc1cccc(Cn2c(OC[C@H]3CCCO3)nc3c2c(=O)n(C)c(=O)n3C)c1 | 16% |
| CC(C)(C)c1ccc(O[C@@H]2[C@H](O)CO[C@H]2C=CC#Cc2ccccc2)cc1 | -16%[14.2 µM] |
| O=C1C[C@H](c2ccccc2)n2nc(N3C(=O)c4ccccc4C3=O)nc2N1 | 3% |
| O=C1[C@H]2[C@H]3[C@H](O)[C@H](O)C/C(=N/OC[C@@H](O)COCc4ccco4)[C@H]3CC[C@@H]2C(=O)N1Cc1ccccc1 | -4%[14.2 µM] |

As a working copy, part of the list above:
| SMILES | Marburg entry inh |
| --- | --- |
| CC(C)(C)c1ccc(O[C@@H]2[C@H](O)CO[C@H]2C=CC#Cc2ccccc2)cc1 | -16%[14.2 µM] |
| O=C1C[C@H](c2ccccc2)n2nc(N3C(=O)c4ccccc4C3=O)nc2N1 | 3% |
| O=C1[C@H]2[C@H]3[C@H](O)[C@H](O)C/C(=N/OC[C@@H](O)COCc4ccco4)[C@H]3CC[C@@H]2C(=O)N1Cc1ccccc1 | -4%[14.2 µM] |

Screening results (PubChem)

Some of the compounds tested; count on the stated rates, not on these rows.
